NS1 inh – influenza NS1 inhibition; S. cerevisiae slowed by influenza A NS1, growth recovery by OD600; Potency, µM (titrated, usually from 46.1 µM), for inactives: at the highest dose activity, positive = more growth; 270,000 tested, 0.4% active; AID 2326; active means well fitted rising curve with a large enough effect; inconclusive means small, poorly fitted or top-dose-only effect; inactive means no such curve, though single readings can be large or run the other way; further: nearly all actives have a fitted effect of over 50% in size
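Recovery from NS1-induced slow growth read by OD600 in budding yeast switched to galactose assay medium (pH 6.0, -URA) at 1:100 dilution. Compound 23 nl per well; the matching strain lacking NS1 serves as control.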
SARS PLP yeast – blocks SARS-CoV papain-like protease in a yeast assay; S. cerevisiae expressing SARS-CoV PLpro, growth rescue; control for the full effect not named in the record; Potency, µM (doses to about 32.9 µM), inactives show top-dose activity, positive = growth rescue; 330,000 tested, 0.19% active; active means well fitted rising curve with a large enough effect; inconclusive means small, poorly fitted or top-dose-only effect; inactive means no such curve, though single readings can be large or run the other way; further: 0% is about no effect; nearly all actives have a fitted effect of over 55% in size; growth read by luminescence after 48 h
RE007 growth inh – less growth of the S. pombe RE007 Vpr strain. AID 651644. Potency, µM (series often up to 92.2 µM), without a hit: top-dose activity change, negative = less growth. 360,000 tested, 0.21% active. S. pombe RE007 Vpr strain, BacTiter-Glo ATP luminescence, 24 h; control for the full effect not named in the record; active = well fitted falling curve with a large enough effect; inconclusive = small, poorly fitted or top-dose-only effect; inactive = no such curve, though single readings can be large or run the other way;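 further: on the % scale 0 is the no-effect control and ±100 the full control effect; nearly all actives have a fitted effect of over 50% in size; the assay follows cell death caused by Vpr and the record does not say whether a fall means rescue or toxicity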
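Fission yeast RE007 carrying one integrated HIV-1 vpr copy, seeded at OD 0.01 in PMG+AL medium with 23 nL pinned compound. Grown 24 h at 30 degrees; viability read by BacTiter-Glo luminescence after 5 min.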
2A StopGo – lowers the luciferase signal of an FMDV 2A StopGo reporter; 410,000 tested, 1.2% active; AID 1159524; Potency, µM (top dose mostly 57.9 µM), without a hit: at the highest dose signal change, negative = less light; human cells with a luciferase reporter of 2A StopGo recoding; control for the full effect not named in the record; active = well fitted falling curve with a large enough effect; inconclusive = small, poorly fitted or top-dose-only effect; inactive = no such curve, though single readings can be large or run the other way; tested in HEK293T cells; further: on the % scale 0 is the no-effect control and ±100 the full control effect; nearly all actives have a fitted effect of over 45% in size; luciferase light after 4 h
Cruzain inh noDet – blocks cruzain activity in detergent-free assay; purified cruzain, Z-FR-AMC fluorescence, no detergent; Potency, µM, for inactives: max response, negative = inhibition, usual class: inhibitors; 200,000 tested, 2.3% active;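 further: plate controls were enzyme without inhibitor for no effect and buffer without enzyme for full effect; nearly all actives have a fitted effect of over 40% in size; top concentration of the series not given in the record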
Target sequence (P25779 123-467 limits assumed): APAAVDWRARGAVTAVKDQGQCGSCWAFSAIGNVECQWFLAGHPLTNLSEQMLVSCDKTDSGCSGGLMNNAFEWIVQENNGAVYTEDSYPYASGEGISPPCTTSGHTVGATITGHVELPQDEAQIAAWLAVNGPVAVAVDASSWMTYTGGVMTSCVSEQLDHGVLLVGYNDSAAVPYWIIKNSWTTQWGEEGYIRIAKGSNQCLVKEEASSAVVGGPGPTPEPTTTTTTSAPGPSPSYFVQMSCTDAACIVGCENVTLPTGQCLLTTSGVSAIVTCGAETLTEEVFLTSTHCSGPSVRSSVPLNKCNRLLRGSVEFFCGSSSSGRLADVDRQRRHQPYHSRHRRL
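Detergent-free condition (0.00005% Triton X-100) in acetate buffer pH 5.5 with DTT. 1.5 nM enzyme and compound were pre-mixed 15 min, then 2 uM Z-FR-AMC substrate added; reaction progress from fluorescence change between first and third reads (60 s).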
Lassa entry inh – Lassa virus entry inhibition; Potency, µM (series often up to 37.9 µM), for inactives: at the highest dose activity change, negative = inhibition, hits mostly inhibitors; 300,000 tested, 1.2% active; Lassa virus pseudotype entry inhibition, cell reporter; control for the full effect not named in the record; active means well fitted inhibition curve with a large enough effect; inconclusive means small, poorly fitted or top-dose-only effect, or effect the other way; inactive means flat fitted curve, though single readings scatter; tested in HEK293 cells; further: on the % scale 0 is the no-effect control and ±100 the full control effect; nearly all actives have a fitted effect of over 50% in size; luciferase read-out
MARV entry inh – Marburg virus entry inhibition; Marburg virus pseudotyped entry inhibition, cell reporter; control for the full effect not named in the record; about a third of the inactives were read at about 46 µM; Potency, µM (top dose mostly 37.8 µM), for the others: at the top dose activity change, negative = inhibition, most hits filed as inhibitors; 300,000 tested, 1.8% active; AID 540276; active = well fitted inhibition curve with a large enough effect; inconclusive = small, poorly fitted or top-dose-only effect, or effect the other way; inactive = flat fitted curve, though single readings scatter; tested in HEK293 cells; about a fifth of its hits are not listed in these tables; further: on the % scale 0 is the no-effect control and ±100 the full control effect; luciferase read-out
Cruzain Triton – blocks cruzain activity in presence of Triton detergent. P25779. purified cruzain, Z-FR-AMC fluorescence, 0.01% Triton. Potency, µM, without a hit: max response, negative = inhibition, most hits filed as inhibitors. AID 1478. 200,000 tested, 0.43% active;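 further: plate controls were neutral wells for no effect and buffer without enzyme for full effect; nearly all actives have a fitted effect of over 40% in size; top concentration of the series not given in the record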
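Z-FR-AMC hydrolysis (2 uM substrate) by cruzain (1.5 nM) monitored kinetically at ex 360/em 450 nm after 15 min room-temperature compound exposure; 0.01% Triton X-100, pH 5.5, 5 mM DTT.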
Active calls of the source: *; ? = inconclusive; . = not tested or not shown; & = joins results of further samples; [ ] = dose if it differs, or a comment. Unless noted, the call rests on the fitted dose curve; in most records, active means well fitted curve in the direction sought with a large enough effect; inconclusive means small, poorly fitted or top-dose-only effect, or another doubt; inactive means no such curve, though single readings can be large; an effect the other way counts as inactive or inconclusive. Potency means the concentration at half of the fitted maximal effect. No enrichment for hits; any-hit rate near 4.8%.

SMILES | NS1 inh | SARS PLP yeast | RE007 growth inh | 2A StopGo | Cruzain inh noDet | Lassa entry inh | MARV entry inh | Cruzain Triton
Cc1scc(C(=O)NNC(=S)NC(C)c2ccccc2)c1C (stereo not drawn) | 1% | ? | 23% | -1% | 9% | -12% | -8% | 1.7%
N/C(=N\OC(=O)c1ccc(Cl)cc1)c1nonc1N | -8% | -5% | -21% | 64%[activator] | -4% | 20% | -1% | 2.9%
CCNC(=O)/C(C#N)=C/c1c(N2CCN(c3ccc(OC)cc3)CC2)nc2c(C)cccn2c1=O | 2% | 5% | -21% | -18% | . | -9%[46.1 µM] | ? | .
COc1ccccc1OCC(=O)n1cc(C(=O)c2cc(Cl)cc(Cl)c2O)cn1 | -29% | -15% | 17% | -11% | -23% | -7% | 4% | -5.4%
COc1ccc(-c2cc(OC(=O)c3cccc(C)c3)c3c(C)oc(C)c3c(=O)c2)cc1 | . | . | . | -7% | -6% | ? | -9%[46.1 µM] | -17%
Cc1ccc(C)c(S(=O)(=O)N2CCCC2CNC(=O)C(=O)NC2CCCCCC2)c1 (stereo not drawn) | . | -6% | -10% | 4% | . | ? | -24% | .
Cc1ccc(CNC(=O)CCc2c(C)nn(-c3ccc(N4CCCCC4)nn3)c2C)cc1 | . | . | . | -3% | 3% | 7%[46.1 µM] | . | -3.0%
CO/N=C/Cc1c([N+](=O)[O-])c(C)nn1C | 8% | 1% | 16% | 3% | . | 8% | 31%[46.1 µM] | .
Cc1ccc(-c2cc(-c3ccccc3)c(C#N)c(Br)n2)cc1 | 13% | ? | -2% | -9% | ? | 17% | ? | -5.0%
CC(C)C(OC(=O)C1=Cc2ccccc2OC1)C(=O)NC1CCCC1 (stereo not drawn) | -3% | -4% | -6% | ? | -9% | 17% | ? | 2.0%
CCC(C)(C)C(=O)Nc1cc([N+](=O)[O-])ccc1F | 15% | 14% | 7% | -20% | 0% | 5% | ? | 4.2%
c1ccc(C(OCCN2CCN(c3ncccn3)CC2)c2ccccc2)cc1 | . | . | -6% | ? | . | ? | ? | .
O=C(NCCc1ccc(Cl)cc1)c1ccc(CSCc2cccc(Cl)c2)o1 | . | . | . | -24% | -2% | -13%[46.1 µM] | . | -8.4%
CN1CCN(C(=S)c2ccc(-c3cc(Cl)ccc3Cl)o2)CC1 | -31% | -2% | -27% | 4% | . | . | . | .
CCSc1nc2ccccc2n1CCC(=O)O | 3% | 0% | -2% | -17% | 0% | 19% | ? | 8.9%
CC(C)OC(=O)CSc1nc(N)c(C#N)cc1C#N | -2% | -1% | -10% | 20% | . | -13%[46.1 µM] | -5%[46.1 µM] | .
Cc1csc2nc(COC(=O)c3ccc(NC(=O)COc4ccccc4F)cc3)cc(=O)n12 | . | . | . | -28% | -5% | ? | . | -6.0%
CCc1ccc2occ(CC(=O)Nc3ccc(C)c(C)c3)c2c1 | . | . | . | 2% | -20% | ? | ? | -9.8%
O=C(NCc1ccncc1)C12CC3CC(CC(C3)C1)C2 | 3% | 0% | 4% | -21% | -9% | 2% | -12% | 2.6%
Cc1ccc(NC(=O)C(Cc2ccccc2)NS(=O)(=O)c2ccc3c(c2)oc(=O)n3C)cc1C (stereo not drawn) | . | . | . | -7% | 12% | ? | 4%[46.1 µM] | 1.3%
CC(C)N1CCC(N2CCN(Cc3cnc(-c4ccccc4)s3)CC2CCO)CC1 (stereo not drawn) | 2% | 0% | -15% | 6% | . | 7% | ? | .
CCN(CC(=O)NCc1ccc2c(c1)OCO2)S(=O)(=O)c1ccc(F)cc1 | 11% | 5% | 9% | 13% | . | -19%[46.1 µM] | -3%[46.1 µM] | .
CCOC(=O)c1sc2nc(C)nc(SCC(=O)N(C)C3CCS(=O)(=O)C3)c2c1C (stereo not drawn) | . | 0% | 1% | 0% | . | ? | 0% | .
COc1ccc(-c2csc(N3CCN(C(=O)c4ccco4)CC3)n2)cc1 | ? | -9% | -19% | ? | 8% | . | . | -4.9%
CN(C(=O)c1ccc(OC2CCN(C(=O)c3cccnc3)CC2)cc1)C1CCCCC1 | -2% | -1% | 7% | -16% | . | -28%[46.1 µM] | 7%[46.1 µM] | .
C/C(=N\NC(=O)COc1c(C)cccc1C)c1cccs1 | -4% | 1% | 4% | 20% | . | 6% | 0%[46.1 µM] | .
Cc1cccc(-c2noc(CN(C(=O)c3ccc(Br)o3)C(C)C)n2)c1 | -46% | -16% | 24% | -7% | 13% | ? | 2% | -8.3%
Cc1cc(C)n(C(=O)CCNC(=O)c2ccccc2Cl)n1 | 4% | -1% | 4% | -8% | 2% | 0% | 0% | -4.9%
CC1(COS(N)(=O)=O)CCCCC1 | 26% | -6% | -5% | -16% | . | . | . | .
CC(=O)c1cn(CC(=O)Nc2ccc(C)cc2C)c2ccccc12 | 4% | -11% | 8% | ? | 13% | ? | ? | -5.5%
C=CCOC(=O)C1=C(C)NC(=O)NC1C1CC=CCC1 (stereo not drawn) | ? | 0% | -10% | -21% | 2% | -11% | 3% | 1.6%
Cc1ccc(-c2cc(C(=O)N/N=C/c3ccoc3)c3ccccc3n2)cc1 | 4% | ? | 0% | 23% | . | . | . | .
COc1ccc2nc(Cl)c(C#N)cc2c1 | 1% | 0% | -2% | -2% | . | 8%[46.1 µM] | 2%[46.1 µM] | .
Cc1cc(C)nc(NCCC(=O)O)n1 | . | 1% | 5% | 0% | . | 18% | -6%[46.1 µM] | .
CC(C)Oc1nc(-c2ccccc2Cl)nc2ccccc12 | -2% | 0% | -24% | -18% | . | -4% | ? | .
NC(=O)c1cc2c3ccccc3ccn2c1-c1ccccc1 | -44% | -5% | 9% | 29% | . | . | . | .
NC1=NC(=Nc2ccc(Br)cc2)c2ccccc21 | -19% | 0% | -6% | 4% | 7% | ? | 7.1µM* | -3.4%
COCCNC(=S)N/N=C(\C)c1ccc(OC(F)F)cc1 | 3% | 1% | -2% | 0% | . | . | -2% | .
Cc1cc(NCCCN2CCOCC2)n2ncc(-c3ccccc3)c2n1 | -3% | 3% | 8% | -1% | 12% | 1% | ? | -1.2%
CC(C)(C)C(=O)COC(=O)c1ccc(N)c([N+](=O)[O-])c1 | . | -2% | -8% | 8% | . | 11%[46.1 µM] | -21%[46.1 µM] | .
COc1ccc(NC(=O)C2CCN(S(=O)(=O)c3ccc(OC)c(OC)c3)CC2)cc1 | -6% | -4% | -20% | . | -2% | -15% | 7% | 7.0%
CCOC(=O)N1CCN(C(=O)C(C)(C)Oc2ccc(Cl)cc2)CC1 | -3% | -1% | -5% | -25% | ? | . | 0% | 1.1%
COc1cc(/C=N/NC(=O)c2ccoc2C)cc(OC)c1O | 7% | 1% | 17% | 35%[activator] | -6% | ? | 3% | -5.5%
O=C(NCCCC1CCCC1)C1CCC(=O)N(Cc2ccc(Cl)cc2)C1 (stereo not drawn) | -37% | -3% | 13% | -13% | . | ? | -21%[46.1 µM] | .
Cc1ccc2c(c1)N(C(=O)NC1CCCCC1)C(C)(C)CC2C (stereo not drawn) | 5% | -7% | -4% | . | 4% | -14% | 28% | 3.6%
N#Cc1ccc(/C=C/C(=O)c2ccco2)cc1 | -37% | -63% | 18µM* | -9% | -4% | ? | ? | -7.8%
CN(Cc1ccco1)S(=O)(=O)c1nnc(NC(=O)c2ccccc2)s1 | -10% | 2% | -11% | 35%&81%[activator] | 2% | 28%[46.1 µM] | . | -0.4%
CCCCC(=O)Nc1cc(C)c(NC(=O)c2cccs2)cn1 | 1% | 0% | -5% | 1% | . | 2% | 3% | .
CCN(CC)c1ccc(NC(=O)C(NS(=O)(=O)c2cccs2)C(C)C)c(C)c1 (stereo not drawn) | . | . | . | -9% | 0% | 11%[46.1 µM] | -20%[46.1 µM] | 6.3%
O=S(=O)(Nc1ccc(-c2ccc(N3CCOCC3)nn2)cc1)c1cc(Cl)ccc1Cl | . | 0% | -4% | 59%[activator] | . | ? | 15% | .
COc1ccc(NC2CCCN(C(=O)CCc3cn[nH]c3)C2)cc1 (stereo not drawn) | 7% | -1% | -14% | -12% | . | . | . | .

A portion taken from the entries so far, for reference:
SMILES | NS1 inh | SARS PLP yeast | RE007 growth inh | 2A StopGo | Cruzain inh noDet | Lassa entry inh | MARV entry inh | Cruzain Triton
CN(Cc1ccco1)S(=O)(=O)c1nnc(NC(=O)c2ccccc2)s1 | -10% | 2% | -11% | 35%&81%[activator] | 2% | 28%[46.1 µM] | . | -0.4%
CCCCC(=O)Nc1cc(C)c(NC(=O)c2cccs2)cn1 | 1% | 0% | -5% | 1% | . | 2% | 3% | .
CCN(CC)c1ccc(NC(=O)C(NS(=O)(=O)c2cccs2)C(C)C)c(C)c1 (stereo not drawn) | . | . | . | -9% | 0% | 11%[46.1 µM] | -20%[46.1 µM] | 6.3%
O=S(=O)(Nc1ccc(-c2ccc(N3CCOCC3)nn2)cc1)c1cc(Cl)ccc1Cl | . | 0% | -4% | 59%[activator] | . | ? | 15% | .
COc1ccc(NC2CCCN(C(=O)CCc3cn[nH]c3)C2)cc1 (stereo not drawn) | 7% | -1% | -14% | -12% | . | . | . | .

Just NS1 inh and Cruzain inh noDet (two entries from above):
mol	NS1 inh	Cruzain inh noDet
CN(Cc1ccco1)S(=O)(=O)c1nnc(NC(=O)c2ccccc2)s1	-10%	2%
CCCCC(=O)Nc1cc(C)c(NC(=O)c2cccs2)cn1	1%	.
